GLA inh pH 4.5: alpha-galactosidase A (human) inhibition, pH 4.5 | activity change, negative = inhibition, % at 105 µM | AID 1467 | 230,000 tested, under 10 active | purified enzyme, 4-MU-alpha-Gal fluorescence, pH 4.5 | P06280; inconclusive = small, poorly fitted or top-dose-only inhibition, or a rising curve; inactive = flat fitted curve, though single readings scatter; no compound was filed as active;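 further: 0% = full activity with enzyme and -100% = basal without enzyme; dose as in the result columns while the protocol names 77 µM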
Target sequence (P06280 whole entry, looked up): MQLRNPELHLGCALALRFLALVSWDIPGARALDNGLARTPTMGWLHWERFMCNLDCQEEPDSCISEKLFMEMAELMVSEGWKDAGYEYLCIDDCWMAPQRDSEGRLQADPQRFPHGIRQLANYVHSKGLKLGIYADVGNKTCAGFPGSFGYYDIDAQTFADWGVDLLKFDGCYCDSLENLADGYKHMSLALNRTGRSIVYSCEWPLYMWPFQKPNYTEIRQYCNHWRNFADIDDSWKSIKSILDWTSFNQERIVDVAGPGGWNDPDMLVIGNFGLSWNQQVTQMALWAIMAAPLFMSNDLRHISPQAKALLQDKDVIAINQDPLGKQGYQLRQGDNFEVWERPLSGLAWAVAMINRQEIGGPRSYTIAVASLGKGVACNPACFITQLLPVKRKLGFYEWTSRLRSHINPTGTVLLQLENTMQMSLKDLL
Rango complex inh: Rango-importin beta binding inhibition. Q14974. 340,000 tested, 0.031% active. Potency, µM (highest dose often 92.2 µM), for inactives: at the highest dose inhibition of complex formation. Rango CFP/YFP FRET sensor + importin beta, 45 min; active = rising FRET ratio curve, often small or poorly fitted; inconclusive = mostly compound fluorescence or quenching in the first reads; inactive = flat curves in all reads;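 further: potency means the concentration at half of the fitted maximal effect; 0% = DMSO wells and 100% = buffer wells lacking importin beta; nearly all actives have a fitted effect of over 15% in size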
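FRET biosensor Rango (snurportin 1 IBB between N-terminal EYFP and C-terminal Cerulean), 50 nM in PBS/1 mM DTT/0.02% Tween-20/0.1% BSA, preincubated 5 min RT with compound; 0.125 microM importin beta added, 45 min RT, CFP/YFP FRET ratio read.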
miR-21 FLuc: miR-21 reporter, rising signal; HeLa miR-21 FLuc reporter, luciferase, 48 h; Potency, µM (series often up to 38.3 µM), for the others: top-dose reporter change, positive = more light; 340,000 tested, under 10 active; AID 2288; active = well fitted rising curve with a large enough effect; inconclusive = small, poorly fitted or top-dose-only effect; inactive = no such curve, though single readings can be large or run the other way;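 further: % of control where 0% means no effect; miR-21 action dims this reporter so a rising signal means less miR-21 action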
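HeLa cells stably expressing CMV-driven firefly luciferase with a downstream miR-21 binding sequence, endogenously expressing miR-21, were treated with titrations (up to about 40uM final) for 48 hours at 37 degree Celsius. Luciferase luminescence was read after lysis.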
Rango dissoc inh: inhibition of RanGTP-driven Rango-importin beta dissociation. Biochemical FRET Rango-importin beta, RanGTP-induced dissociation. 340,000 tested, 0.071% active. AID 540253. Potency, µM (titrated, usually from 46.1 µM), without a hit: top-dose activity change, negative = inhibition; active means falling FRET ratio curve, often poorly fitted, with flat reads before Ran was added; inconclusive means other falling curves, or compound fluorescence or quenching; inactive means flat or rising ratio curve;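 further: potency means the concentration at half of the fitted maximal effect; % of control where 0% means no effect; nearly all actives have a fitted effect of over 45% in size; -100% = wells without RanGTP and RCC1; the record marks most hits as doubtful in a second field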
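Rango FRET biosensor (snurportin-1 IBB flanked by N-terminal EYFP and C-terminal CFP10) at 0.1 uM, with 0.25 uM importin beta in PBS, 1mM DTT, 0.02% Tween-20, 0.1% BSA. 0.6 uM Ran, 2mM GTP and 0.2 uM RCC1 were then added for 45 min at room temperature. Inhibition read as loss of FRET rise.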
Starred values were filed as active, the others as inactive; ? = inconclusive; . = not tested or not shown; & = joins results of further samples; [ ] = remark or other dose. Some of the compounds tested (hit frequency here may not be typical).

SMILES	GLA inh pH 4.5	Rango complex inh	miR-21 FLuc	Rango dissoc inh
O=C1CSC(c2ccccc2)N1c1ccc([N+](=O)[O-])cc1 (centres undefined)	.	-3.9%	0.5%	13.2%
CC(C)N(C(=S)Nc1ccc(S(=O)(=O)N2CCOCC2)cc1)c1ccccc1	.	1.3%	.	-9.9%
Cc1ccc(S(=O)(=O)N2CCN(C(=O)[C@H](Cc3ccccc3)NC(=O)c3ccco3)CC2)cc1C	.	-3.1%	.	9.1%
O=C(Cn1nnc(-c2ccccc2F)n1)NCc1ccco1	1.4	2.2%	-0.3%	-7.9%
Cc1csc(SCC(=O)Nc2cc(C(C)(C)C)nn2-c2ccccc2)n1	4.2	2.6%	-3.2%	1.5%
COc1ccc(-n2ncc3c2CC(C)(C)CC3NC(=O)c2ccnn2C)cc1 (centres undefined)	.	-0.6%	3.5%	2.6%
CCN1CCc2c(sc(NC(=O)c3cc4ccccc4cc3OC)c2C(N)=O)C1	.	?	-9.0%	?
CC1CCCC(NC(=O)Cn2cc(Br)ccc2=O)C1C (centres undefined)	.	2.1%	.	1.3%
Cc1cc(=O)oc2cc(O)c(N=Nc3ccccc3)cc12	-4.5	-2.9%	2.6%	10.7%
CCOC(=O)c1c(C)[nH]c(C)c1S(=O)(=O)N1CCN(c2ccc([N+](=O)[O-])cc2)CC1	.	2.5%	-12.4%	0.7%
CCOC(=O)N1C(=O)NC(=O)C1c1ccc(Cl)cc1 (centres undefined)	.	2.3%	.	-15.0%
Cc1cccc(NC(=O)C(=O)NCCCN2CCOCC2)c1	5.7	2.0%	-16.4%&-1.6%	3.6%
O=C1C2C3C=CC(CC3)C2C(=O)N1c1ccccc1 (centres undefined)	.	2.6%	-1.9%	-12.2%
CC(=O)Nc1ccc(C(=S)NCCCO)cc1	-1.2	-0.6%	-5.4%	3.0%
COc1ccc(C2C(C#N)=C(N)OC(C(C)(C)C)=C2C#N)cc1OC (centres undefined)	6.4	0.3%	-11.2%	-5.3%
Cc1cc(C([O-])=C(C(=S)Nc2ccc(F)cc2)[n+]2ccccc2)c(C)n1-c1ccc(F)cc1	.	-0.9%	.	-28.1%
CC1(C)CC2CC(C)(CN2S(=O)(=O)c2ccc(C(=O)Nc3cccc(S(=O)(=O)N4CCOCC4)c3)cc2)C1 (centres undefined)	2.0	1.1%	29.2%	2.2%
O=C1c2cc(N3CCCC3)c([N+](=O)[O-])cc2C(=O)N1c1ccccc1	2.5	6.5%	-4.0%	1.6%
COCCN(CCOC)S(=O)(=O)c1ccc(C(=O)Nc2nc(C)c(C(C)=O)s2)cc1	-6.6	-8.5%	-15.5%	-2.4%
COC(=O)c1nn(-c2ccc(OC)cc2)c(=O)cc1Oc1cccc(Cl)c1	1.1	3.0%	-0.3%	-8.0%
CCOC(=O)C1(CC2CCCCO2)CCN(C(=O)Nc2ccccc2SC)CC1 (centres undefined)	-0.9	0.6%	4.9%	4.4%
CCn1ncc(Br)c1C(=O)Nc1sc2c(c1C(N)=O)CCC2	3.7	-0.2%	-1.0%	0.7%
COC(=O)c1ccccc1NC(=S)N1CCN(c2ccccc2)CC1	.	-0.2%	-9.0%	18.2%
CN(Cc1ccc(Cl)s1)C(=O)CNC(=O)CNC(=O)c1ccc(Cl)cc1Cl	.	1.1%	.	5.8%
COc1ccc(NC(=S)SC)cc1OC	-14.2	0.4%	-3.1%	19.2%
COCCN(Cc1ccccc1)C(=O)c1cccc(S(=O)(=O)N2CCCc3ccccc32)c1	.	2.1%	.	14.7%
Cc1ccc(NC(=O)CSc2nc(N)c3cc4c(nc3n2)CCCC4)cc1	-2.8	-0.2%	-33.4%	8.2%
COc1ccc(N2CCN(C(=O)c3cccnc3SCc3cccc(Br)c3)CC2)cc1	-4.2[21.1 µM]	1.3%	4.9%	5.4%
Cc1cccc(OCCn2c(=O)n(C)c3ccccc32)c1	-3.4	-1.4%	-50.1%	24.2%
COc1ccc(/C=C/C(=O)Oc2cccc(/C=N/NC(=O)COc3c(C)cccc3C)c2)cc1	8.7	1.1%	-8.6%	1.8%
O=S(=O)(NCc1ccccc1)c1ccc(-c2cnc(C3CC3)o2)cc1	.	-4.0%	20.7%&27.6%	25.7%
O=C(CN1CCN(S(=O)(=O)c2ccc(Br)cc2)CC1)Nc1ccc(F)cc1F	-0.1	-1.1%	-4.1%	16.5%
CN(Cc1ccon1)C(=O)CC1C(=O)NCCN1Cc1ccc(Cl)c(F)c1 (centres undefined)	.	?	-3.8%	0.5%
O=C(COC(=O)c1cccnc1SCC(=O)NCc1ccccc1)NCc1ccccc1	5.4	0.1%	3.7%	2.2%
Cn1nccc1CNC(=O)c1ccnn1C	-2.3	0.3%	3.4%	15.4%
COc1ccc(-c2nc(C)c(C(C)=O)n2O)cc1OC	3.0	0.9%	-16.4%	-0.1%
CCN(CC(=O)Nc1c(F)cccc1F)C(=O)c1cccc(-n2cccc2)c1	.	1.7%	.	0.0%
BrC(=C\c1ccccc1)/C=N/Nc1nc(N2CCOCC2)nc(N2CCOCC2)n1	-2.2	0.1%	4.6%	0.4%
Cc1c(NC(=O)C2CCN(S(=O)(=O)c3cccs3)CC2)c(=O)n(-c2ccccc2)n1C	1.7	-0.5%	2.8%	-0.5%
Cc1ccc(CN(C)C(=O)c2ccc(S(=O)(=O)N3CCCCCC3)cc2)o1	.	?	.	-18.8%
CCOC(=O)c1c(-c2ccccc2)oc2ccc(OCC(=O)O)cc12	-1.6	-2.4%	3.3%	15.3%
O=C(CCn1cncn1)N1CCCC(N2CCN(c3ccc(F)cc3)CC2)C1 (centres undefined)	.	-0.2%	-9.5%	3.6%
COc1ccc(OCCOc2ccc(/C=C3\C(=N)N4N=C(C)SC4=NC3=O)cc2)cc1	.	-2.7%	.	-1.8%
O=C(NNC(=O)c1cc(-c2ccccc2)nc2ccccc12)Nc1cccc(Cl)c1	-10.5	-1.6%	24.6%	-7.0%
Cc1nn(-c2ccccc2)c(C)c1C(=O)OCC(=O)N(C)c1c(N)n(Cc2ccccc2)c(=O)[nH]c1=O	.	-2.5%	.	33.9%
Cc1cc(C)c(NC(=O)COC(=O)/C=C/c2cccc(C(F)(F)F)c2)c(C)c1	-8.3	4.5%	1.5%	22.1%
Cc1ccc(C(=O)Nc2cccc3ccccc23)cc1	.	0.5%	-35.2%	-0.4%
Cc1onc(-c2c(Cl)cccc2Cl)c1C(O)c1ccccc1 (centres undefined)	.	1.4%	1.7%	-8.9%
Brc1ccc(Cn2c(-c3ccc(Br)o3)nc3ccccc32)o1	-2.7	?	-29.5%	-22.3%
CCCCNc1nc2c(-c3ccccc3)nnn2c2ccccc12	5.2	-1.3%	3.4%	7.4%

(cont.)
SMILES	GLA inh pH 4.5	Rango complex inh	miR-21 FLuc	Rango dissoc inh
O=C(c1cccc([N+](=O)[O-])c1)c1ccc2c(c1)C(=O)N(c1c[nH]c(=O)[nH]c1=O)C2=O	-0.2	.	-0.5%	.
CN(CCNC(=O)c1cc2c(=O)n(C)c3ccccc3c2n1C)Cc1ccccc1	-5.3	-2.7%	6.4%	5.0%
Cc1ccc(OCCn2c(=O)sc3ccccc32)cc1	-7.5	-1.2%	-56.0%	-13.0%
COc1ccc(Cn2nnnc2CN2CCC(c3nc4ccccc4s3)CC2)cc1	-1.7	-0.1%	5.6%	-10.9%
COc1ccc(CCN(Cc2cccs2)S(=O)(=O)c2ccc(C(=O)O)cc2)cc1OC	1.3	3.7%	-10.2%	20.3%
CCCn1c(SCC(=O)Nc2nnc(CC)s2)nnc1-c1ccco1	-0.5	0.3%	-4.0%	1.6%
O=C(COc1cccc2ccccc12)N/N=C/C=C/c1ccccc1	-3.6	0.5%	-10.2%	-5.1%
CCOC(=O)NCC(C)(C)CNC(=O)OCC	-2.4	-1.2%	-5.3%	-24.0%
COc1ccccc1C(=O)Nc1cc2c(cc1C(=O)O)OCCCO2	.	-2.2%	-6.3%	-4.8%
CCCCc1nnc(NC(=O)c2cccc(S(=O)(=O)N3CCN(C)CC3)c2)s1	.	-0.8%	6.8%	5.9%

Some of the entries so far, with values ahead of the structure:
GLA inh pH 4.5	Rango complex inh	miR-21 FLuc	Rango dissoc inh	smiles
1.3	3.7%	-10.2%	20.3%	COc1ccc(CCN(Cc2cccs2)S(=O)(=O)c2ccc(C(=O)O)cc2)cc1OC
-0.5	0.3%	-4.0%	1.6%	CCCn1c(SCC(=O)Nc2nnc(CC)s2)nnc1-c1ccco1
-3.6	0.5%	-10.2%	-5.1%	O=C(COc1cccc2ccccc12)N/N=C/C=C/c1ccccc1
-2.4	-1.2%	-5.3%	-24.0%	CCOC(=O)NCC(C)(C)CNC(=O)OCC

Continued.
SMILES	GLA inh pH 4.5	Rango complex inh	miR-21 FLuc	Rango dissoc inh
O=C(O)c1cc(-c2cccc([N+](=O)[O-])c2)n[nH]1	-1.3[21.1 µM]	-1.7%	0.3%	9.6%
CCn1cc(C(=O)NCc2ccco2)c(=O)c2ccc(C)nc21	.	-0.8%	3.2%	15.5%
COc1ccc(-n2c(SCC(=O)N(C)c3ccccc3)nc3c([nH]c4ccccc43)c2=O)cc1OC	.	2.2%	-4.7%	-17.6%
N/C(=N\OC(=O)/C=C/c1ccccc1)c1ccccn1	3.0	-0.7%	-29.8%	-0.7%
CC1CCCN(S(=O)(=O)c2ccc(NC(=O)Cn3nnc(-c4ccccc4F)n3)cc2)C1 (centres undefined)	2.0	3.8%	4.8%	6.6%
COC(=O)CCC/C=C1\SC[C@@H](NC(=O)c2ccccc2)C1NC(C)=O (some centres undefined)	-0.1	-1.5%	3.8%	-7.5%
O=C(COC(=O)c1ccc(Cl)nc1)Nc1ccc(Cl)cc1	.	0.0%	.	26.9%
O=C(CSc1ccc(S(=O)(=O)N2CCOCC2)cn1)Nc1ccc(F)c(F)c1	.	5.0%	.	25.9%
COc1ccccc1C1N(c2ccc(Cl)cc2)C(=O)C2CCCN21 (centres undefined)	7.1	1.5%	17.2%	22.7%
CC(=O)c1cccc(OCCN2C(=O)NC(C)(C)C2=O)c1	1.2	0.3%	-0.1%	6.6%
CC1CCCC(NC(=S)NC(=O)c2ccccc2Br)C1C (centres undefined)	17.2	-0.9%	-2.5%	-1.2%
CCOc1ccc(CN(C)CC(=O)NCc2ccccc2)cc1	-2.9	-4.8%	-5.3%	0.1%
COc1ccc(N2CCN(S(C)(=O)=O)CC2)cc1	0.1	4.1%	-0.6%	-1.1%
C/C(=N\NC(=O)c1c[nH]c2ccccc12)c1ccc(C)s1	.	-0.7%	-47.2%	-14.6%
O=C(c1cc(Br)ccc1Cl)N1CCN(c2ccccn2)CC1	.	-3.5%	3.4%	15.9%
Cc1nc(NC(=O)c2cccc(-c3cc4ccccc4oc3=O)c2)ccc1Br	2.8	1.9%	-48.9%	8.9%
COc1cc(CN2CCCCCC2)cc(OC)c1O	.	6.8%	-0.3%	25.2%
CCN1CCN(c2ncnc3scc(-c4ccc(OC)cc4)c23)CC1	.	-0.4%	0.2%	10.1%
C=C(C)CSc1nc2nc(C)cc(C)n2n1	-13.3	-2.3%	-17.6%	-9.5%
O=[N+]([O-])c1ccc(-c2nc(Nc3ccc(O)cc3)c3ccccc3n2)cc1	.	-0.2%	26.7%	-8.2%
CCN(CC(=O)NCc1ccc(Cl)cc1)C(=O)COc1cccc(Cl)c1	.	-1.7%	.	-3.5%
CCn1c(CCn2ccnc2C)n[nH]c1=S	-3.5	4.0%	-3.4%	0.4%
COc1ccc(N2CCN(c3ccc(NC(=O)/C=C\C(=O)O)cc3)CC2)cc1	.	0.8%	-2.6%	-8.6%
Cc1oc(-c2cccs2)nc1CS(=O)CC(=O)NC1CCCCCC1 (centres undefined)	-0.9	-0.7%	-9.2%	-3.3%
O=C(O)CN1CCCCCC1=O	-3.1	-0.3%	2.1%	0.7%
CCCNc1nc(Cl)nc(NC(C)(C)C)n1	-5.0[21.1 µM]	1.2%	1.8%	5.6%
Cc1cccc(NC(=O)Cn2c(=O)n(Cc3ccco3)c(=N)c3c4c(sc32)COC(C)(C)C4)c1	-10.4	-0.8%	-0.5%	-15.9%
CC(=O)NCC(=O)OCN1C(=O)c2ccccc2C1=O	-9.9	-0.7%	-3.0%	-1.0%

Screens as filed in PubChem BioAssay.
